High-throughput results as filed in PubChem.
CtBP-E1A inh: qHTS Assay for Inhibitors of the CtBP/E1A Interaction | 0.49% of 340,000 active | activity change, % (concentration not given with the values) | CtBP / adenovirus E1A interaction (AlphaScreen) | AlphaScreen GST-E1A/His-CtBP binding, 1536-well; stronger effect = lower value; control for the full effect not named in the record | AID 651724, 2012; in the data active means activity change below about -65%; inconclusive means about -30% to -65%; inactive means above about -30%; further: on the % scale 0 is the no-effect control and ±100 the full control effect
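Homogeneous bead-based format: GST-tagged E1A captured on glutathione donor beads, His-tagged CtBP on nickel acceptor beads; compounds precede bead addition by 2 h at 37 °C.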
Sfp inh: qHTS Assay for Inhibitors of Bacillus subtilis Sfp phosphopantetheinyl transferase (PPTase). 4'-phosphopantetheinyl transferase ffp (Bacillus subtilis), Q9F4F7. Biochemical Sfp PPTase activity, qHTS. Potency, µM, for the others: max response, negative = inhibition, most hits filed as inhibitors. 3.5% of 310,000 active; active means well fitted inhibition curve with a large enough effect; inconclusive means small, poorly fitted or top-dose-only effect, or another doubt; inactive means no such curve, though single readings can be large or run the other way;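 further: the enzyme is Sfp with the accession as filed and its product quenches rhodamine fluorescence; potency means the concentration at half of the fitted maximal effect; 0% = enzyme reaction without inhibitor and -100% = no enzyme wells; top concentration of the series not given in the record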
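Fluorescence-quenching assay: 15 nM Sfp-PPTase preincubated 15 min at room temperature with compound, then 5 uM rhodamine-CoA and 12.5 uM BHQ-2-labelled YbbR peptide added. Fluorescence (ex 525/em 598 nm) read at start and after 30 min; difference gives rate.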
gsp antag: qHTS for Antagonists of gsp, the Etiologic Mutation Responsible for Fibrous Dysplasia/McCune-Albright Syndrome: qHTS; 0.4% of 340,000 active; AID 624288, 2012; Potency, µM (doses to about 76.9 µM), without a hit: at the highest dose activity change, negative = inhibition, actives largely listed as inhibitors; gsp-mutant cells, cAMP HTRF, 30 min; control for the full effect not named in the record; active = falling curve of any shape with a large fitted effect; inconclusive = falling curve, mostly with a smaller effect; inactive = flat or rising curve; cell line not stated here;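 further: intracellular cAMP measured with PDE inhibitor Ro 20-1724 present during compound exposure; potency means the concentration at half of the fitted maximal effect; on the % scale 0 is the no-effect control and ±100 the full control effect; nearly all actives have a fitted effect of over 65% in size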
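Cells in G418 medium, seeded 16-24 h, 37C; buffer exchange to DPBS + 1 mM CaCl2, 0.5 mM MgCl2, 0.05% BSA; cpds in DMSO + […] (300 uM stock), 30 min 37C; HTRF cAMP detection.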
Menin-MLL FL inh: qHTS Assay for Inhibitors Targeting the Menin-MLL Interaction in MLL Related Leukemias: Competition With Fluorescein Labeled MLL-derived Peptide; Fluorescence polarization, fluorescein-MLL peptide displacement from menin; AID 1766, 2009; 290,000 tested, under 10 active; FP activity change, % at 61.4 µM; inconclusive = falling polarisation curve, or a change in total fluorescence; inactive = total fluorescence flat and polarisation flat or rising; no compound was filed as active; the % refers to the polarisation; negative = inhibition;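 further: % of control where 0% means no effect; inhibitors lower the polarisation; unlabelled MLL peptide was the positive control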
gsp agonist: qHTS for Agonist of gsp, the Etiologic Mutation Responsible for Fibrous Dysplasia/McCune-Albright Syndrome: qHTS; 0.13% of 340,000 active; gsp mutant cells, cAMP HTRF, 30 min; control for the full effect not named in the record; Potency, µM (doses to about 76.9 µM), for inactives: at the top dose activation (cAMP increase), actives largely listed as activators; active = well fitted activation curve with a large enough effect; inconclusive = small, poorly fitted or top-dose-only effect, or another doubt; inactive = no such curve, though single readings can be large or run the other way; cell line not stated here;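 further: phosphodiesterase inhibitor Ro 20-1724 added with compounds to block cAMP breakdown; potency means the concentration at half of the fitted maximal effect; nearly all actives have a fitted effect of over 60% in size; about a fifth of the inactives were tested at one dose only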
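Cells stably selected in G418 were plated at 2000/well, grown 16-24 hr, then given compounds in DMSO with the PDE inhibitor […] (300 uM solution added) for 30 min at 37C; cAMP was read by HTRF.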
ClpP mod: qHTS Assay for Activators of ClpP | purified B. subtilis ClpP, FRET peptide cleavage, 20 min | AID 651965, 2013 | ATP-dependent Clp protease proteolytic subunit (Bacillus subtilis (strain 168)), P80244 | Potency, µM (titrated, usually from 57.5 µM), for inactives: at the top dose activity change, negative = active | 1.9% of 340,000 active; active = well fitted falling curve with a large enough effect; inconclusive = small, poorly fitted or top-dose-only effect; inactive = no such curve, though single readings can be large or run the other way; further: potency means the concentration at half of the fitted maximal effect; the source files actives as falling curves though it sought activators and does not explain the sign; nearly all actives have a fitted effect of over 65% in size; many hits overshoot -100%
Target sequence (P80244 whole entry, looked up): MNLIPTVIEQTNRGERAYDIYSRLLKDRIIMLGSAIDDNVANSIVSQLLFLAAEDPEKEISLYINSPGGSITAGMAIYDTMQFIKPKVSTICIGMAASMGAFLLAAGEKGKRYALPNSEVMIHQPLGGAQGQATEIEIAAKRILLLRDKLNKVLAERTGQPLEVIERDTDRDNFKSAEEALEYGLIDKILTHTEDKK
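FRET quenching reversal measured ClpP activation: 10 microg/mL B. subtilis ClpP at pH 8 with the FRET-FV decapeptide, read at 430 nm after 320 nm excitation. The 20-min minus 0-min signal was scaled between DMSO/no-enzyme wells and ADEP (5.8 microM final).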
TRPV1 PAM: HTS Assay for Compounds that Act as Potentiators of the Vanilloid Receptor 1 | TRPV1-expressing cells, Fluo-8 calcium influx, capsaicin EC20 potentiation; host cell line not named in the record; control for the full effect not named in the record | potentiation, % at 8.33 µM | 0.02% of 320,000 active; active means potentiation above 80%; inconclusive means 30% to 80%; inactive means below 30%; further: 0% is about no effect
Target sequence (Q8NER1 whole entry, looked up): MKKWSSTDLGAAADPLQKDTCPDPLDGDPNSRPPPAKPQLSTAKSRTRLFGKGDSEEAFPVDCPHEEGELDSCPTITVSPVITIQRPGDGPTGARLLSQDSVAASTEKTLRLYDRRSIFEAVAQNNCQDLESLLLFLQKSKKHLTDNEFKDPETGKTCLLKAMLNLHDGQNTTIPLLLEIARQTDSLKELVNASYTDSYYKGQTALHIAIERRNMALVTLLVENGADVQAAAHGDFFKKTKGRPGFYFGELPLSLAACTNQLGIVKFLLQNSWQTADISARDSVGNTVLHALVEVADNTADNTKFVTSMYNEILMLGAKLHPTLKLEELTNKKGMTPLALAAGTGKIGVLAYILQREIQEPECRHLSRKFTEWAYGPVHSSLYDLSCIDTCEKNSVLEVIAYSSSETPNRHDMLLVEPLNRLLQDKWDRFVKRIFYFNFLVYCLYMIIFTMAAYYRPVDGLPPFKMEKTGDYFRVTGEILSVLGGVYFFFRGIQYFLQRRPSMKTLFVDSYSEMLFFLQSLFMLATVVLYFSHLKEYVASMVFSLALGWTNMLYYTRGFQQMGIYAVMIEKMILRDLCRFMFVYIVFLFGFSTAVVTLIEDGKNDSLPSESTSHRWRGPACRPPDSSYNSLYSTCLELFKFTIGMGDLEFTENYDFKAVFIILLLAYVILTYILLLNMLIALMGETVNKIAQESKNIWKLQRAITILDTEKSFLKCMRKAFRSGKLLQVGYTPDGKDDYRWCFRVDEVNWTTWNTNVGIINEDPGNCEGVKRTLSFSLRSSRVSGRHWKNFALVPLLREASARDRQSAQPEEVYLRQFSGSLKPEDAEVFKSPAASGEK
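Fluo-8 calcium influx in TRPV1-expressing cells, kinetic read (ex 480/em 520 nm). Compound added and read 3 min for agonist activity, followed by capsaicin at EC20 final and 2 min further read for enhancement.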
Active calls of the source: *; ? = inconclusive; . = not tested or not shown; [ ] = dose if it differs, or a comment.

SMILES	CtBP-E1A inh	Sfp inh	gsp antag	Menin-MLL FL inh	gsp agonist	ClpP mod	TRPV1 PAM
O=C(CSc1n[nH]c(-c2cccnc2)n1)Nc1ccccc1	11	-4%	0%	-2.6	6%	1.3%	7
NC(=O)COc1ccc(-n2cnnn2)cc1	.	-7%	5%	-6.6	4%	1.3%	-8
CC(=O)c1cccc(CN2CCN(C(C)C)C(CCO)C2)c1 (stereo not given)	11	6%	-14%	5.2	-7%[15.4 µM]	.	5
CN(CC(=O)Nc1ccc(F)cc1)C(=O)C1Cc2ccccc2CN1S(C)(=O)=O (stereo not given)	-2	.	11%	.	-4%	3.1%	-1
COc1ccc(N2CCN(C(=O)c3cccc(Br)c3)CC2)c([N+](=O)[O-])c1	.	5%	?	0.4	4%	-0.1%	-17
Cn1c2ccccc2n2c(=O)c(=O)n(CC(=O)c3ccc(F)cc3)nc12	-7	5%	6%	-0.1	3%	0.3%	1
CC(C)C[C@H](NC(=O)c1[nH]cnc1C(=O)Nc1ccc(CNC(=O)OC(C)(C)C)cc1)C(=O)OC(C)(C)C	-1	24%	1%	-6.5	0%	-17%	2
CCN(CC)C(=O)[C@H]1C[C@H](CC(=O)NCCc2ccccn2)C(=O)N2CCc3c([nH]c4cc(-c5ccco5)ccc34)[C@]12C	-6	.	-15%	.	.	4.2%	.
O=C1N(O)C2(C=CCCC2)/C(=N\O)C12CCCCC2 (stereo not given)	8	10%	12%	-0.1	-13%	-0.5%	?
O=C(Oc1ccc([N+](=O)[O-])cc1)c1cc(-c2ccccc2)nc2ccccc12	0	10%	-12%	-0.2	11%	-8.3%	-2

Arranged by molar mass (smallest number first): three of the compounds above.
SMILES	CtBP-E1A inh	Sfp inh	gsp antag	Menin-MLL FL inh	gsp agonist	ClpP mod	TRPV1 PAM
O=C(CSc1n[nH]c(-c2cccnc2)n1)Nc1ccccc1	11	-4%	0%	-2.6	6%	1.3%	7
COc1ccc(N2CCN(C(=O)c3cccc(Br)c3)CC2)c([N+](=O)[O-])c1	.	5%	?	0.4	4%	-0.1%	-17
CC(C)C[C@H](NC(=O)c1[nH]cnc1C(=O)Nc1ccc(CNC(=O)OC(C)(C)C)cc1)C(=O)OC(C)(C)C	-1	24%	1%	-6.5	0%	-17%	2

Continued:
SMILES	CtBP-E1A inh	Sfp inh	gsp antag	Menin-MLL FL inh	gsp agonist	ClpP mod	TRPV1 PAM
O=C(COC(=O)c1cccc(-n2cnnn2)c1)c1ccccc1	1	14%	5%	.	9%	0.4%	1
CCCC(C)NCC(=O)Nc1ccccc1-c1ccccc1 (stereo not given)	9	-12%	-4%	1.6	-30%	-0.3%	-5
O=C(NCC1COc2ccccc2O1)c1cccc(S(=O)(=O)N2CCCCC2)c1 (stereo not given)	1	.	-9%	.	-14%	-1.5%	-13
CCOC(=O)c1c(-c2ccccc2)csc1/N=C/C1C(=O)CCCC1=O	4	-25%	-16%	.	28%[15.4 µM]	0.8%	-13
Cc1ccc(NC(=O)c2sc(N)nc2-c2ccc([N+](=O)[O-])cc2)cc1C	-1	6%	12%	4.0	27%[15.4 µM]	.	.
O=C(NC12CC3CC(CC(C3)C1)C2)N1CCN(C(=O)c2ccco2)CC1	-19	-3%	-9%	0.1	-16%	.	-3
Clc1ccc(/C(Cc2nc3ccccc3[nH]2)=N\Nc2ccccc2)cc1	-10	-3%	?	1.1	-10%[15.4 µM]	.	4
COCCNC(=O)CN(c1ccccc1OC)S(C)(=O)=O	-22	14%	12%	3.1	17%	1.5%	-13
COc1ccc(NC(=O)c2coc3ccccc23)cc1OC	-4	5%	2%	0.9	8%	1.6%	-16
Cc1ccc2nc(-c3ccc(NC(=O)COC(=O)c4ccc(=O)[nH]c4)cc3)sc2c1	-1	-8%	2%	7.1	5%[15.4 µM]	12%	14
CCn1c(C(=O)N2CCCC(C(=O)NCCCc3ccccc3)C2)cc2sccc21 (stereo not given)	3	1%	?	1.2	-10%	0.6%	18
C=CC[C@@H](CC(=O)N[C@@H](CO)Cc1ccccc1)C(=O)N[C@@H](C)COC(=O)[C@@H](CC=C)Cc1ccc(F)cc1	.	.	-2%	.	?	0.9%	.
CC(C)(C)OC(=O)[C@H](Cc1ccccc1)NC(=O)c1[nH]cnc1C(=O)Nc1cccc(Cl)c1	0	26%	7%	-1.1	.	?	-10
CCOc1ccc(CN(C)CC(=O)Nc2ccc(N3CCOCC3)cc2)cc1OC	1	-3%	7%	2.3	-36%[inhibitor]	-5.7%	-15
O=C(NC(=S)Nc1cc(S(=O)(=O)N2CCOCC2)ccc1N1CCOCC1)c1ccco1	0	10%	-20%	-0.3	-5%[15.4 µM]	1.7%	2
Cc1cc(-c2ccccc2)nc(N(C)NC(=O)C2CC2)c1S(C)(=O)=O	-24	7%	.	-0.6	1%[15.4 µM]	.	5
CC1CN(C(=O)c2ccc(NS(=O)(=O)c3ccc(F)cc3)cc2)CC(C)O1 (stereo not given)	3	3%	-23%	5.7	9%	-0.2%	-8
O=C(CCc1ccc(Oc2cc([N+](=O)[O-])cc([N+](=O)[O-])c2)cc1)N1CCCCCC1	-23	18µM*	-22%	7.2	-11%	-2.4%	-13
CC(=O)Nc1ccc(S(=O)(=O)N(C)CC(=O)N/N=C/c2ccncc2)cc1	3	3%	11%	-9.8	-5%[15.4 µM]	.	-8
NC(=O)NCCc1ccccc1	13	-3%	6%	-1.4	.	0.7%	11
COC(=O)c1c(NC(=O)C2CC(=O)NN2Cc2ccccc2)sc(C)c1C (stereo not given)	-5	-18%	5%	3.5	22%	-7.6%	1
CC(=O)Oc1c(C)c(OC(C)=O)c2c(c1C(C)=O)OC1CC(=O)C(C(C)=O)=C(O)C21C (stereo not given)	.	6%	-23%	4.5	0%	-0.1%	-8
CN1CCN(CCCNC(=O)CN2C(=O)COc3ccccc32)CC1	-11	28%	6%	.	-8%[15.4 µM]	-2.3%	20
COC(=O)Cc1csc(/N=C/c2c(O)n(-c3cccc(C(F)(F)F)c3)c(=O)c3ccccc23)n1	5	-4%	4%	20	12%[15.4 µM]	.	1
CC12CCC(C)(c3nc4ccccc4nc31)C2(C)C	4	7%	3%	0.9	11%[15.4 µM]	.	-15
Cc1ccccc1Nc1c([N+](=O)[O-])ccc2nonc12	-6	2%	9%	-7.3	8%	.	-9
CC(=O)c1sc(NC(=O)c2ccccc2)nc1-c1ccccc1	2	-12%	-20%	6.2	?	-0.9%	11
O=C(Cc1c(F)cccc1Cl)Nc1ccccc1C(=O)N1CCOCC1	5	14%	16%	-1.7	-38%[inhibitor]	?	3
O=C(Nc1ccncc1)Nc1cccc(Cl)c1Cl	?	4%	-2%	2.3	-30%	1.2%	-9
CCN(CC)C(CNS(=O)(=O)c1ccc(Cl)cc1)c1ccccc1 (stereo not given)	6	-4%	16%	0.4	-5%[15.4 µM]	0.2%	-4
O=C(CCCC(=O)NN=Cc1ccc(Cl)cc1Cl)NN=Cc1ccc(Cl)cc1Cl	1	.	-15%	.	-29%	-1.5%	.
COc1ccc(-c2csc(Cc3nnc(N4CCOCC4)n3-c3ccccc3)n2)cc1OC	-3	12%	-4%	-0.4	-21%	-2.7%	14
CN1C(=O)NC(c2ccc(Cl)cc2)C2=C1CC(C)(C)CC2=O (stereo not given)	-15	7%	10%	-0.9	-4%[15.4 µM]	-28%	5
O=C(C[n+]1cc(-c2ccc(F)cc2)n2c1CCC2)N1c2ccccc2Sc2ccccc21	-17	-1%	10%	2.1	0%	-1.8%	17
Cc1occc1C(=O)NCc1ccco1	-2	-4%	-6%	-0.2	-16%	-0.2%	-3
Cc1cc(C)cc(NC(=O)C2CCCN(c3nc(C)cc(C)n3)C2)c1 (stereo not given)	15	10%	8%	2.7	-4%	-14%	-18
CC1(C)CC(=O)c2sc(NC(=O)C3COc4ccccc4O3)nc2C1 (stereo not given)	-2	16%	-18%	-0.1	?	-30%	13
Cc1oc2c(CN3CCOCC3)c(O)ccc2c(=O)c1-c1ccccc1	8	17%	-12%	-0.5	-41%[inhibitor]	28µM*	-4
C=CCC1NS(=O)(=O)OC2CCCCC12 (stereo not given)	-25	22%	7%	8.5	.	-3.6%	8
O=C(Cn1cc(C(F)(F)F)ccc1=O)Nc1ccc2c(c1)OCCO2	-7	.	4%	.	-19%[15.4 µM]	-3.4%	.
Cc1noc2ncnc(Sc3ccccc3Cl)c12	-11	-12%	2%	-3.5	-40%[inhibitor]	1.8%	8
CCOC(=O)C1=NNC(C(=O)OCC)C1C(=O)OCC (stereo not given)	7	.	8%	.	-4%	.	.
COc1ccccc1NC(=O)c1ccc(NS(=O)(=O)c2ccc(F)c(F)c2F)cc1	1	-6%	-22%	-3.7	5%	-1.2%	10
Cc1cc(C(=O)NC2CCC(O)CC2)c(C)o1 (stereo not given)	3	.	2%	.	33%[15.4 µM]	1.2%	.
Nc1nnnn1/N=C/c1cc(Cl)cc(Cl)c1O	-17	-9%	9%	?	?	.	-4
O=C(Cn1c(-c2cscn2)nc2ccccc21)Nc1ccc2ccccc2c1	-6	-23%	0%	4.6	-40%[inhibitor]	12%	12
COc1cccc(C2CC(=O)N3CN(c4cccc(Cl)c4C)CSC3=C2C#N)c1OC (stereo not given)	5	3.5µM*	-1%	0.9	-5%	-0.5%	?
COc1cccc(-c2c(-c3cc(OC)cc(OC)c3)n(C)c3ccc(-c4ccc5[nH]ccc5c4)cc23)c1	-21	.	10%	.	-10%	3.8%	3
C=CCc1cc(OC)ccc1OCCN1CC(C)OC(C)C1 (stereo not given)	3	56µM*	15%	0.9	-17%	-1.7%	7
COc1cccc(OC)c1C(=O)NC(=S)Nc1ccc2c(c1)C(=O)N(C)C2=O	0	-7%	-26%	1.2	-15%	-0.3%	-6
CCn1cc(C(=O)NCCOC)c(=O)c2ccc(C)nc21	-1	-6%	14%	-0.6	2%	1.3%	6
O=C(Nc1ccc(F)cc1)Nc1ccc(Cl)cn1	5	21%	-15%	6.4	?	0.8%	3
